Source: PubChem BioAssay (several laboratories)
Ecoli growth – E. coli growth inhibition; Escherichia coli growth, OD600, 23 h; hits give low values; OD600 absorbance (test concentration not listed); actives 0.21% (n = 330,000);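 active = OD600 absorbance below the run mean of sample wells minus 3.6 SD, in any replicate, cut at about 0.56 in these data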;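 also: stock transfer was 300 nL into about 60 µL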
B2AR ag – human beta-2 adrenergic receptor agonism by FAP | actives 0.43% (n = 340,000) | P07550 | Am2.2-beta2AR cells, FAP receptor internalization, flow cytometry; reference of the scale not given here | response, % (no concentration beside the values);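 active = response above a set limit, near 3 SD of response in nonfluorescent compounds, cut at about 42% in these data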;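 also: stock transfer was 100 nL into about 11 µL; a reference agonist was the positive control; negative values mostly stem from fluorescent compounds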
Target sequence (P07550 whole entry, looked up): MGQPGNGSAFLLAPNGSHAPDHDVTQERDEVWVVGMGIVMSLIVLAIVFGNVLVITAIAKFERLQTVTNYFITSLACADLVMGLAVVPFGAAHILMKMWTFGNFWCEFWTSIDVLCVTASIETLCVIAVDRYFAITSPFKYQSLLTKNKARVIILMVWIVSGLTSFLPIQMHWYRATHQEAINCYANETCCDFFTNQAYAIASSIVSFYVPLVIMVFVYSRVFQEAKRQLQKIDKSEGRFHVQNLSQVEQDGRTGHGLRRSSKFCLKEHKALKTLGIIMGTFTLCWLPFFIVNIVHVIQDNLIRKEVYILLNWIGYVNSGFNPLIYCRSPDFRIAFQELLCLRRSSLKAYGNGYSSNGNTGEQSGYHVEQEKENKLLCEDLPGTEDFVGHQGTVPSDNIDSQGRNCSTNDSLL
FGF22 binding – binders of recombinant human FGF22 by thermal shift; calls only at 9.99 µM; actives 1.5% (n = 340,000); SYPRO orange fluorescence; percent of sucrose octasulfate shift, DMSO zero; AID 651658;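 active = melting point raised past a set limit in the mean and every replicate; three in four hits are not shown here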
Target sequence (Q9HCT0 whole entry, looked up): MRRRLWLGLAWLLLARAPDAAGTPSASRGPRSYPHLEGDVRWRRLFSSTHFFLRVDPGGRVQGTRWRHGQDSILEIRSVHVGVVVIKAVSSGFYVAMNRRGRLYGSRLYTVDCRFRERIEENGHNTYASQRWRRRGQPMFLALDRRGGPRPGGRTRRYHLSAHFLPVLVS
rRNA inh HTS – inhibitors of bacterial rRNA selective over humanized ribosomes; E. coli WT GFP vs humanized-ribosome RFP mutants, fluorescence, 24 h; hits give low values; DMSO median 0, no signal -100; GFP signal change (wild-type ribosome), % (test concentration not listed); actives 1.6% (n = 350,000); AID 720706;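 active = significant combined selectivity score with lowered wild-type GFP, culture density cut under 30%, mutant RFP and density less affected; inactive = any of these conditions unmet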; also: one replicate is shown; some compounds called inactive have numbers as strong as hits
HNF4A DNA FP – change in binding of human HNF4 alpha to DNA; P41235; HNF4a-FITC DNA binding, fluorescence polarization, 1 h; activity change, % at 10 µM; actives 0.3% (n = 360,000); in the data active = activity change above about 30%, passing the limit was not always enough;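 also: controls were the assay level and a saturating level of protein; the project sought stronger binding though the title names inhibitors; some compounds called inactive have numbers as strong as hits; positive values seem to mean higher polarization but the record does not say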
UCH37 DUB inh – blocks the human deubiquitinase UCH37 | purified proteasome/UCH37, Ub-AMC cleavage fluorescence | inhibition, % (test concentration not listed) | actives 0.33% (n = 330,000) | AID 588478;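 active = mean of two replicates above 20%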;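 also: 0% = compound-free wells with enzyme and 100% = wells lacking proteasome; stock transfer was 100 nL into about 20 µL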
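assay system = human UCH37 enzyme supplied as purified proteasome complex | amount = proteasome at 0.15 nM in the dispensed enzyme solution | schedule = 30 min compound-proteasome preincubation then 25 min substrate reaction, room temperature | measured by = fluorescence, ex 355 nm, em 460 nm | benchmarks = no-proteasome wells (full inhibition) and compound-free wells (no inhibition)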
ALR inh – inhibitors of human sulfhydryl oxidase ALR; actives 3.8% (n = 290,000); AID 485317; purified ALR, DTT oxidation, H2O2 HRP-luminol luminescence; inhibition, % (no concentration beside the values);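 active = mean and each replicate at 75% or more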;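 also: stock transfer was 7.5 nL into about 7.5 µL; 0% = neutral wells and 100% = wells with inactivated enzyme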
Target sequence (P55789 whole entry, looked up): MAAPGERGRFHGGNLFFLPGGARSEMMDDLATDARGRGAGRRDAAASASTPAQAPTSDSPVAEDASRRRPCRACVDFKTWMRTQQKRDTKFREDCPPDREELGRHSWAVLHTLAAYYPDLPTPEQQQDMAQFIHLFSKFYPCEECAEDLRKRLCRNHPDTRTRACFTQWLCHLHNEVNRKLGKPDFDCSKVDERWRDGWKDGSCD
rRNA inh HTS OD600 – further read-out of rRNA inh HTS, marked with its call; OD600 change, %; measured here: OD600 growth;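 optical density of the mix in the first replicate; 0 = DMSO median and -100 = no signal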
rRNA inh HTS RFP – second read-out of rRNA inh HTS, no call of its own (marks repeat the call); RFP signal change, %; measured here: RFP humanized mutant strains;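 first replicate; 0 = DMSO median and -100 = no signal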
* marks the source's active call; other numbers are inactive results; i = inactive; / = no result given; & = joins results of further samples. Not all compounds are listed (hit frequency here may not be typical).

SMILES | Ecoli growth | B2AR ag | FGF22 binding | rRNA inh HTS | rRNA inh HTS OD600 | rRNA inh HTS RFP | HNF4A DNA FP | UCH37 DUB inh | ALR inh
COC(=O)c1ccc(COc2ccc(C#N)cc2)o1 | 0.66 | -4 | i | 7 | 5 | -0.1 | -1.1 | 2.0 | -19
O=C(CSc1nnc(-c2ccncc2)n1Cc1ccccc1)Nc1nccs1 | 0.72 | 4 | / | / | / | / | -0.2 | 0.4 | -13
COC(=O)Nc1ccc(S(=O)(=O)Nc2ccc(O)cc2)cc1 | 0.64 | 2 | / | / | / | / | -0.1 | -1.4 | 89*
Cc1oc2c(C)c(O)ccc2c(=O)c1-c1ccc2ccccc2n1 | 0.76 | -1 | / | / | / | / | -3.3 | -1.7 | -9
N=C1c2ccccc2CN1NC(=O)CC12CC3CC(CC(C3)C1)C2 | 0.68 | -6 | i | -16 | -51 | 30 | 4.2 | -1.1 | 0
O=S(=O)(c1cccc(-c2nnc(-c3ccc(Br)cc3)o2)c1)N1CCCCCC1 | 0.76 | -5 | / | / | / | / | -4.3 | 2.1 | -10
CCOc1cc(C(=O)NCc2ccccc2)ccc1OCC(=O)N1CCCCC1 | 0.63 | 3 | i | 8 | 15 | 4.4 | -0.6 | 1.0 | 1
CC(=O)Nc1sc2c(c1C#N)CCC2 | 0.7 | 1 | i | 14 | 6 | 2.0 | 1.9 | -1.7 | /
O=C(N/C(=C\c1ccc([N+](=O)[O-])cc1)C(=O)N1CCCCC1)c1ccc(Br)o1 | 0.71 | -5 | i | 8 | 9 | -0.1 | -2.3 | 10 | -5
CCOC(=O)/C=C1\CC(C(=O)OCC)Oc2c(OC)cccc21 (stereo unspecified) | 0.71 | 2 | i | -1 | -3 | -0.4 | 1.2 | -2.0 | /
Cc1ccc(OCC(=O)NC2=NCCS2)cc1 | 0.68 | 1 | / | / | / | / | -1.6 | 2.5 | -3
CSc1ccc(Cn2c(C)c(C(=O)NCc3cccc(C)c3)sc2=O)cc1 | / | / | i | 0 | -1 | 1.0 | 0.0 | / | /
CC(=O)Nc1ccc(C(=O)NCCc2ccccc2)cc1 | 0.69 | 3 | i | 12 | 9 | -1.1 | 3.5 | 7.5 | 45
CC1=NN(c2ccccc2)C(=O)C1=C(C)C | 0.66 | -1 | i | 4 | 2 | -0.7 | -1.0 | 0.4 | 6
Cc1c(C(C)(C)C)c(C=S)n2ccccc12 | 0.67 | -7 | / | / | / | / | -8.4 | 5.3 | -15
COc1ccc(CN(C(=O)c2cc3ccccc3oc2=O)C2CCS(=O)(=O)C2)cc1 (stereo unspecified) | 0.68 | -15 | i | 14 | 1 | 0.9 | 0.7 | 6.1 | -3
O=C(O)c1ccccc1CSC1=NCCS1 | 0.65 | -2 | i | 20 | 16 | 0.3 | -3.7 | 3.5 | 98*
O=C(N/N=C/c1cccc2ccccc12)c1cccnc1 | / | 6 | i | -1 | 0 | -1.2 | 0.3 | / | -7
COc1cc(N)c(Cl)cc1C(=O)OCC(=O)NCC1CCCO1 (stereo unspecified) | 0.68 | 3 | i | 2 | 3 | -0.2 | 2.1 | 1.1 | -8
O=C(NCC1CCCO1)c1ccc2c(=O)n(CCc3ccccc3)c(=O)[nH]c2c1 (stereo unspecified) | 0.73 | -2 | / | / | / | / | -1.5 | -8.6 | -12
O=C(COC(=O)/C=C/c1cccc(Br)c1)NC1CCCCC1 | 0.71 | -3 | i | 10 | 17 | 0.0 | -1.2 | 2.4 | /
Cc1sc2nc(SCC(=O)NCCOCCO)n(C)c(=O)c2c1C | 0.67 | -4 | / | / | / | / | -0.1 | 5.6 | -6
CC(=O)Nc1ccc(C(=S)NCCCO)cc1 | 0.66 | 1 | i | 15 | 9 | -0.5 | 5.5 | 3.3 | -4
COc1ccc(CC(=O)Nc2c3c(nn2-c2cccc(C)c2C)CS(=O)C3)cc1OC (stereo unspecified) | 0.67 | -5 | / | / | / | / | -1.1 | 5.5 | -5
CCOC(=O)C1CCN(Cc2ccccc2C)CC1 | 0.71 | 4 | i | 10 | 14 | 2.3 | 1.1 | 0.5 | -3
CC1CCN(C(=O)C2CCN(S(=O)(=O)c3ccc4c(c3)CC(C)N4C(=O)C3CC3)CC2)CC1 (stereo unspecified) | 0.64 | -10 | i | -2 | -1 | 4.8 | 8.4 | -1.5 | -2
CCC(C)c1ccc(S(=O)(=O)N2CC(=O)Nc3ccccc32)cc1 (stereo unspecified) | 0.71 | -2 | / | / | / | / | -0.1 | 3.5 | -24
Cc1ccc(CNC(=O)CO/N=C/c2ccc3c(c2)OCO3)cc1 | / | 2 | i | -10 | -9 | -1.8 | 3.0 | / | -7
S=C(NC1CCCCC1)N1CCN(C/C=C/c2ccccc2)CC1 | 0.66 | -5 | / | / | / | / | 0.8 | 4.5 | /
COc1ccc(CNC(=O)c2sc(=O)n(Cc3ccc(-c4ccccc4)cc3)c2C)cc1OC | / | / | i | 1 | 8 | 0.0 | 1.1 | / | /

Grouped by structure, the entries above containing an aryl methoxy group
SMILES | Ecoli growth | B2AR ag | FGF22 binding | rRNA inh HTS | rRNA inh HTS OD600 | rRNA inh HTS RFP | HNF4A DNA FP | UCH37 DUB inh | ALR inh
CCOC(=O)/C=C1\CC(C(=O)OCC)Oc2c(OC)cccc21 (stereo unspecified) | 0.71 | 2 | i | -1 | -3 | -0.4 | 1.2 | -2.0 | /
COc1ccc(CN(C(=O)c2cc3ccccc3oc2=O)C2CCS(=O)(=O)C2)cc1 (stereo unspecified) | 0.68 | -15 | i | 14 | 1 | 0.9 | 0.7 | 6.1 | -3
COc1cc(N)c(Cl)cc1C(=O)OCC(=O)NCC1CCCO1 (stereo unspecified) | 0.68 | 3 | i | 2 | 3 | -0.2 | 2.1 | 1.1 | -8
COc1ccc(CC(=O)Nc2c3c(nn2-c2cccc(C)c2C)CS(=O)C3)cc1OC (stereo unspecified) | 0.67 | -5 | / | / | / | / | -1.1 | 5.5 | -5
COc1ccc(CNC(=O)c2sc(=O)n(Cc3ccc(-c4ccccc4)cc3)c2C)cc1OC | / | / | i | 1 | 8 | 0.0 | 1.1 | / | /

Next records.
SMILES | Ecoli growth | B2AR ag | FGF22 binding | rRNA inh HTS | rRNA inh HTS OD600 | rRNA inh HTS RFP | HNF4A DNA FP | UCH37 DUB inh | ALR inh
CN(C)S(=O)(=O)c1ccc(N2CCCC2)c(C(=O)Nc2nc3c(ccc4ccccc43)s2)c1 | 0.7 | -1 | / | / | / | / | 4.6 | -134 | -7
CCOC(=O)C1=C(C)NC(=O)NC1c1ccc(Br)o1 (stereo unspecified) | 0.68 | 10 | / | / | / | / | 1.0 | 2.9 | 1
Oc1c(Br)cc(Br)cc1CNc1nccs1 | 0.68 | 11 | i | -41 | -45 | -6.6 | 4.6 | 2.9 | 10
CN1C(=O)c2ccc(C(=O)Nc3cccnc3)cc2C1=O | 0.7 | -1 | i | 21 | 17 | -1.1 | 1.2 | 3.4 | -5
COc1ccc(CC(=O)NCc2cccs2)cc1OC | 0.74 | -22 | / | / | / | / | -3.1 | 2.9 | -5
Nc1cc(=O)[nH]c(SCC(=O)Nc2ccc(S(=O)(=O)N3CCCC3)cc2)n1 | 0.66 | -2 | i | 6 | 20 | 0.2 | -1.7 | -1.4 | 61
COCCn1c(=NC(=O)CCS(=O)(=O)c2ccccc2)sc2cc(C(=O)OC)ccc21 | 0.71 | -6 | i | 8 | 1 | -2.3 | 3.9 | -6.7 | 5
Cc1cccc(NC(=O)CSc2c3c(nc4ccccc24)CCC3)n1 | 0.7 | -5 | i | -16 | -10 | 3.2 | -1.0 | 3.0 | 99*
Cc1cc(C(=O)OCC(=O)Nc2ccc(F)cc2)c(C)o1 | 0.72 | 7 | / | / | / | / | 1.9 | 0.5 | 0
O=C(c1cc(C2CC2)on1)N1CCN(c2ccccc2)CC1 | 0.74 | -9 | i | -1 | -2 | -0.8 | 1.3 | 3.9 | 86*
C[C@@H]1CN([C@H](C)CO)C(=O)CCCn2nncc2CO[C@@H]1CN(C)C(=O)Cc1ccccc1 | / | / | i | 2&0 | 8&-2 | -0.7&-1.1 | 5.2 | / | /
CCOC(=O)c1cc(-c2ccccc2)nn1CC1CC(c2ccc(Cl)cc2)=NO1 (stereo unspecified) | 0.71 | -2 | / | / | / | / | 4.0 | 2.8 | -12
CCNC(=O)C1CCCN(c2nc(C)cc(C)n2)C1 (stereo unspecified) | 0.67 | -1 | i | 5 | 10 | -2.8 | 1.1 | -3.9 | -3
CSCC(=O)Nc1cc(C)on1 | 0.66 | 20 | i | 5 | 7 | -0.8 | 0.8 | 2.6 | -50
O=C(NC(=O)c1cc([N+](=O)[O-])ccc1Cl)C1=C(N2CCCC2)COC1=O | 0.7 | -16 | i | 6 | -5 | -4.9 | 2.1 | 1.5 | -10
CCn1cc(C(=O)Nc2cccc(NC(C)=O)c2)c2cc(OC)c(OC)cc2c1=O | 0.68 | 3 | / | / | / | / | 4.1 | 3.1 | 16
O=C(CCNS(=O)(=O)c1ccccc1C(F)(F)F)NCCCN1CCOCC1 | 0.7 | -7 | i | 7 | 13 | -2.4 | 2.6 | 7.3 | -1
Cc1ncc([N+](=O)[O-])n1CCOC(=O)c1ccc(Cl)cc1Cl | 0.7 | -1 | / | / | / | / | 2.0 | 0.2 | /
Cc1ccc(CNC(=O)NC23CC4CC(CC(C4)C2)C3)cc1 | 0.68 | 1 | i | -8 | -7 | 3.5 | -0.2 | 1.0 | -1
O=C(CCc1ccccc1)NNC(=O)c1ccc(F)cc1 | 0.71 | 5 | / | 13 | 19 | 1.2 | -1.2 | 2.2 | -4
COc1ccc(NC(=O)CCN2C(=O)c3cccc([N+](=O)[O-])c3C2=O)cc1 | / | 0 | i | 9 | 9 | 1.5 | -0.8 | / | -11
O=S(=O)(c1ccc(-c2ccon2)s1)N1CCCC1 | 0.69 | -9 | i | 3 | 6 | 0.6 | 4.7 | 2.0 | -3
COc1ccc(OC)c(S(=O)(=O)n2nnc3ccccc32)c1 | 0.67 | 14 | / | / | / | / | -0.8 | 6.5 | -5
Cc1ccc(COC(=O)c2nn(-c3ccccc3)nc2N)cc1 | 0.68 | -5 | i | 2 | 5 | 1.8 | -3.0 | -161 | 20
Cc1ccc(NC(=O)CN(C)S(=O)(=O)c2cccc3nsnc23)cc1Cl | 0.67 | 5 | / | / | / | / | -5.0 | 3.2 | -7
COc1ccc(-c2cc(-c3ccccc3)c(C#N)c(S(C)=O)n2)cc1 (stereo unspecified) | 0.79 | 44* | / | / | / | / | -2.1 | i | /
O=C(O)CCC(=O)N1N=C(c2ccccc2)CC1c1cccs1 (stereo unspecified) | 0.67 | 6 | i | 0 | -6 | 6.3 | 3.5 | -1.7 | 3
COc1cccc(CNC(=O)c2cccs2)c1 | 0.66 | -1 | i | 5 | 12 | -1.8 | -4.3 | -0.8 | -1
Cc1ccc(S(=O)(=O)Nc2nc3ccc(N)cc3s2)cc1 | 0.71 | -3 | i | 6 | -2 | -2.1 | -0.9 | 5.1 | 24

Molecules from the list above that have an NH in an aromatic ring (2):
SMILES | Ecoli growth | B2AR ag | FGF22 binding | rRNA inh HTS | rRNA inh HTS OD600 | rRNA inh HTS RFP | HNF4A DNA FP | UCH37 DUB inh | ALR inh
O=C(NCC1CCCO1)c1ccc2c(=O)n(CCc3ccccc3)c(=O)[nH]c2c1 (stereo unspecified) | 0.73 | -2 | / | / | / | / | -1.5 | -8.6 | -12
Nc1cc(=O)[nH]c(SCC(=O)Nc2ccc(S(=O)(=O)N3CCCC3)cc2)n1 | 0.66 | -2 | i | 6 | 20 | 0.2 | -1.7 | -1.4 | 61
